# PV pol inh – inhibitors of poliovirus RNA polymerase binding and polymerization; P03300; poliovirus polymerase elongation, fluorescence polarization; hits give low values; % elongation, % (compound at 16.7 µg/mL); actives 0.66% (n = 150,000); in the data active means % elongation below about 90%; further: some results filed as inactive read as strong as hits
# Target sequence (P03300 1749-2209 limits assumed): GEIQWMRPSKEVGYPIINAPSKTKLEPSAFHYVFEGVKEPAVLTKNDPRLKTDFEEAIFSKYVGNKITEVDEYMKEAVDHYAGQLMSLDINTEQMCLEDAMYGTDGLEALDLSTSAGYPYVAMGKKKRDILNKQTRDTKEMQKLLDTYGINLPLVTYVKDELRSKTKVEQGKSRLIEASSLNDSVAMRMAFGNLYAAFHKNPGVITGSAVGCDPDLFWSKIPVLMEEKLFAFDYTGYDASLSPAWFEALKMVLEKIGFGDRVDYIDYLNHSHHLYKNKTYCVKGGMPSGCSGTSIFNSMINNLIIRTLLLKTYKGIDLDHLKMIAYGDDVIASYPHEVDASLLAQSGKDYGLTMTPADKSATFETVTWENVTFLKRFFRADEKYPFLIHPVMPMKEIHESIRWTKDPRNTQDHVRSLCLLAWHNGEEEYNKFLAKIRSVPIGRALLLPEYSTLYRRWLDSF
# PV pol inh intensity – further read-out of PV pol inh, marked with its call; % elongation; measured here: total intensity read-out; formula for this scale not given here;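 total fluorescence in place of polarization; lower means less elongation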
# Numbers without * were called inactive. The list is partial; rates above refer to the full screens.
# Values run as follows: PV pol inh intensity | PV pol inh
CCC(C(=O)OCc1cc(=O)n2nc(C)sc2n1)c1ccccc1 (stereo not given)
  98 | 103
CCOC(=O)C1(C)C=C(Nc2ccc(OC)cc2)C(=O)N1c1ccccc1 (stereo not given)
  115 | 114
CC(C)(C)c1ccc(C(=O)NCCc2csc3nc(-c4ccccc4F)nn23)cc1
  113 | 112
O=C(CC1N=C2c3ccccc3N=C(SCC(=O)Nc3ccc(F)cc3)N2C1=O)NCc1cccs1 (stereo not given)
  95 | 97
Cc1cc(C)cc(NC(=O)CN2C(=O)CSc3ccc(S(=O)(=O)N(C)C)cc32)c1
  113 | 104
Cc1ccc(Cn2c3ccccc3c3cnn(CC(=O)N4CCCCCC4)c(=O)c32)cc1
  110 | 116
COc1ccc(CCNC(=O)C(=O)Nc2ccccc2F)cc1
  109 | 108
COc1cccc(CNC(=O)CN(c2ccc(C(C)C)cc2)S(=O)(=O)c2c(C)n[nH]c2C)c1
  111 | 107
COc1cc2c(cc1OC)C(c1ccc(F)cc1)N(c1cccc(C#N)c1)C(=O)C2 (stereo not given)
  106 | 103
COc1cccc(CNc2nc3c(-c4ccccc4)nnn3c3ccccc23)c1
  109 | 106
CCn1cc(C(=O)N2CCN(c3cccc(Cl)c3)CC2)c2cc(OC)c(OC)cc2c1=O
  109 | 106
O=C(COc1ccccc1Cl)Nc1ccc2oc(-c3ccccc3F)nc2c1
  110 | 105
CCOc1cccc2cc(-c3nc(-c4ccc(Cl)cc4)c(C)s3)c(=O)oc12
  114 | 112
COC(=O)c1ccc(CSc2nnc3ccc4ccccc4n23)cc1
  104 | 102
COc1ccc2c(C)c(CCC(=O)NCc3ccc(C)cc3)c(=O)oc2c1
  114 | 109
COc1ccc(CNC(=O)c2nc(S(=O)(=O)Cc3ccccc3)ncc2Cl)cc1
  113 | 109
COc1ccc(OCc2ccc(-c3nc(C#N)c(N4CCN(c5ccccc5)CC4)o3)o2)cc1
  102 | 107
CC(C)(C)c1ccc(-c2nc(NC(=O)CSc3ncnc4sc5c(c34)CCCC5)ns2)cc1
  108 | 106
Cc1ccc(NC(=O)Cn2nnc3sc(-c4ccccc4)cc3c2=O)cc1Cl
  163 | 152
COc1ccc(N(C(=O)c2cccc(C)c2)S(=O)(=O)c2ccc(Cl)cc2)cc1
  109 | 108

# Reprinted from the part before: 2 compounds; new compounds follow.
# Values run as follows: PV pol inh intensity | PV pol inh
Cc1ccc(NC(=O)Cn2nnc3sc(-c4ccccc4)cc3c2=O)cc1Cl
  163 | 152
COc1ccc(N(C(=O)c2cccc(C)c2)S(=O)(=O)c2ccc(Cl)cc2)cc1
  109 | 108
CCN1C(=O)c2ccccc2S(=O)c2ccc(C(=O)NCc3ccccc3OC)cc21 (stereo not given)
  109 | 105
O=c1c2ccccc2n(Cc2cccc(Cl)c2)c(=O)n1CCc1ccccc1
  109 | 106
Cc1cccc(N2CCN(C(=O)c3ccc4c(c3)N(Cc3ccccc3F)C(=O)c3ccccc3S4=O)CC2C)c1 (stereo not given)
  109 | 108
CC(Oc1ccc(Br)cc1)C(=O)N(Cc1nc(-c2ccccc2)no1)C(C)C (stereo not given)
  91 | 100
CCC1CCCCN1CCCNC(=O)c1ccc2c(c1)N(Cc1cccc(C)c1)C(=O)c1ccccc1S2(=O)=O (stereo not given)
  109 | 104
CCOC(=O)c1cccc(NC(=O)c2cnn(-c3ccccc3)c2-n2cccc2)c1
  107 | 105
CCCCNC(=O)C1CCC(CNS(=O)(=O)c2ccc(C)cc2)CC1 (stereo not given)
  105 | 109
CCOC(=O)c1c(NC(=O)CSc2cn(CCNC(=O)c3ccc(OCC)cc3)c3ccccc23)sc2c1CCC2
  109 | 108
Cc1ccc2nc(COc3ccc(NC(=O)COc4ccccc4F)cc3)cc(=O)n2c1
  105 | 111
COc1ccccc1NC(=O)C1=C(C)Nc2nc(CCCO)nn2C1c1cccc(O)c1 (stereo not given)
  102 | 108
Cc1ccc(NC(=O)CCN2CCN(CCO)CC2)cc1C
  102 | 102
COc1cc(OC)c(NC(=O)CC(c2cccs2)N2Cc3ccccc3C2=O)cc1Cl (stereo not given)
  103 | 103
COc1cccc(CN2C(=O)c3ccccc3Sc3ccc(C(=O)OCc4ccco4)cc32)c1
  111 | 108
CC(=O)Nc1ccc(S(=O)(=O)NCC2CCC(C(=O)NCCN(CC(C)C)CC(C)C)CC2)cc1 (stereo not given)
  111 | 104
COc1cccc(NC(=O)CSc2nc(=O)n(Cc3ccco3)c3c2CCC3)c1
  103 | 109
CCOc1ccc(NC(=O)C(=O)NCCc2csc3nc(-c4ccccc4F)nn23)cc1
  104 | 107
Cc1oc2c(cc(NS(=O)(=O)c3ccc(F)cc3)c3ccccc32)c1C(=O)OCc1ccccc1
  110 | 105
Cc1ccc(CNC(=O)c2cc(S(=O)(=O)N3CCCCC3)cn2C)cc1
  106 | 104
Cc1cccc(N2CCN(C(=O)c3cn(C4CCCCC4)c(=O)c4c3c3ccccc3n4C)CC2)c1C
  111 | 115
CCOc1ccccc1N(C)C(=O)Cn1nc(Cc2cccnc2)c2ccccc2c1=O
  106 | 104
Cc1ccc(C)c(CSc2nc3c([nH]c4ccccc43)c(=O)n2C)c1
  105 | 107
Cc1cccc(-n2ncc3c(NC4CCCC4)ncnc32)c1
  105 | 104
Clc1ccccc1CNc1ncnc2c1nc1n2CCCC1
  112 | 113
CCCS(=O)(=O)N1CC(=O)N(c2ccc(Cl)cc2C)C(C)(C(=O)NC2CCCC2)C1 (stereo not given)
  98 | 101
CCCOc1cccc(C(=O)N2CCCCC2CCN2CCCCC2)c1 (stereo not given)
  107 | 109
C=C(C)Cn1c(=O)c2c(nc3n2CCN3c2ccc(F)cc2)n(C)c1=O
  108 | 105
Cc1ccccc1Nc1ncnc2c1c(-c1ccccc1)cn2-c1ccc(F)cc1
  111 | 108
COc1ccc(CNC(=O)C2CCN(c3nnc(-n4c(C)ccc4C)s3)CC2)c(OC)c1
  108 | 106
COc1ccccc1NC(=O)CN1C(=O)CSc2ccc(S(=O)(=O)N3CCCC3)cc21
  107 | 107
CCOc1ccc(NC(=O)c2cnn3c2NC(c2cccc(OC)c2)=CC3c2ccccc2)cc1 (stereo not given)
  143 | 111
Cc1ccc(-c2nc3sc(CCNS(=O)(=O)c4cc(F)ccc4F)c(C)n3n2)cc1
  108 | 108
CCCNC(=O)c1ccc2c(c1)N=C(C)c1c(C)ccc(C)c1S2
  109 | 107
COc1ccccc1CNC(=O)C(C)n1c(=O)cc(-c2ccccc2)c2c(C)nn(C)c21 (stereo not given)
  102 | 99
CCSc1nc2c([nH]c3ccccc32)c(=O)n1-c1cccc(OC)c1
  109 | 104
CCOC(=O)C1CCN(C(=O)c2nn(-c3ccc(C)cc3)c(=O)c3c2c2ccccc2n3C)CC1
  109 | 108
COc1ccc(CC(=O)NC2CC(=O)N(c3cccc(F)c3)C2)cc1OC (stereo not given)
  104 | 100
Cc1ccc(C2=CC(c3c(F)cccc3Cl)n3ncnc3N2)cc1C (stereo not given)
  92 | 99
COc1ccc(C(=O)N=c2sc3cc(Cl)ccc3n2C)cc1
  102 | 101
COc1ccc(CC(=O)NCCS(=O)(=O)N2CCN(c3ccccc3F)CC2)cc1OC
  109 | 109
COc1cc(O)ccc1-c1nc2ccc(Br)cn2c1Nc1ccccc1C
  113 | 113
CCOC(=O)c1ccc(N2C(=O)c3n[nH]c(-c4ccco4)c3C2c2ccc(C)cc2)cc1 (stereo not given)
  110 | 107
COc1cccc(C2C(C(=O)Nc3ccccc3)=C(C)Nc3nnnn32)c1OC (stereo not given)
  108 | 108
COc1ccc(-c2nc3scc(CCNS(=O)(=O)c4ccccc4F)n3n2)cc1
  108 | 109
CCN(Cc1ccccc1)S(=O)(=O)c1ccc(F)c(C(=O)Nc2cc(C)ccc2OC)c1
  98 | 102
COc1ccc(CCC(=O)NCCc2csc(-c3cccc(C)c3)n2)cc1
  113 | 111
COc1cc(-c2nnc(SCC(=O)Oc3ccccc3Cl)o2)cc(OC)c1OC
  112 | 105
COCCNC(=O)c1c(NC(=O)c2cc(=O)c3cc(Cl)ccc3o2)sc2c1CCCC2
  107 | 104
CCOc1ccc(N2CC(NC(=O)C(=O)c3c[nH]c4ccccc34)CC2=O)cc1 (stereo not given)
  105 | 100
Nc1nnc(SCC(=O)Nc2cccc(F)c2)s1
  95 | 101
Cc1ccccc1NC(=O)CSc1c(C(C)C)cnc2c1c(=O)n(C)c(=O)n2C
  107 | 103
O=C(COC(=O)CCCC1=NS(=O)(=O)c2ccccc2N1)Nc1ccc(Br)cc1
  111 | 114
CN1C(C(=O)Nc2cccc(O)c2)=CC(c2ccco2)=NS1(=O)=O
  110 | 109
CCOc1cccc2cc(-c3nc4sc(C(=O)Nc5ccc(C)cc5)c(C)c4c(=O)[nH]3)c(=O)oc12
  146 | 99
CC(C)Oc1ccc(CNC(=O)c2cnc3sc(N4CCCC4)nn3c2=O)cc1
  37* | 15*
CCN1c2ccccc2-c2nc(SCC(=O)NCc3ccccc3)ncc2S1(=O)=O
  109 | 109
Cc1ccc(NC(=O)N2CCN(c3nnc(C)c4c(C)n(-c5ccc(Cl)cc5)nc34)CC2)c(C)c1
  105 | 99
CCCn1cc(S(=O)(=O)c2ccc(C)cc2)c(=O)c2cc(OC)c(OC)cc21
  107 | 103
O=C(CSc1nc(=O)[nH]c2c1CCCC2)Nc1ccc(Cl)c(Cl)c1
  105 | 100
Cc1nc(N2CCCC2)c2c(C(=O)Nc3cccc(Cl)c3C)c(C)oc2n1
  104 | 100
CCCn1cnc2cc(NC(=O)c3cc(OC)c(OC)c(OC)c3)ccc21
  104 | 103

# Sorted by number of heavy atoms (highest first): 3 of the compounds above
# Values run as follows: PV pol inh intensity | PV pol inh
CCN(Cc1ccccc1)S(=O)(=O)c1ccc(F)c(C(=O)Nc2cc(C)ccc2OC)c1
  98 | 102
COCCNC(=O)c1c(NC(=O)c2cc(=O)c3cc(Cl)ccc3o2)sc2c1CCCC2
  107 | 104
CCCn1cnc2cc(NC(=O)c3cc(OC)c(OC)c(OC)c3)ccc21
  104 | 103

# Next section.
# Values run as follows: PV pol inh intensity | PV pol inh
CCOC(=O)c1c(C)[nH]c(C)c1S(=O)(=O)N1CCC(C(=O)N2CCN(c3cc(C)ccc3C)CC2)CC1
  108 | 112
CCOc1cc(Br)c(C2C(C(=O)OC)=C(C)NC3=C2C(=O)c2ccccc23)cc1OCC (stereo not given)
  108 | 105
Cc1cc(C)cc(NC(=O)c2cc(S(=O)(=O)N3CCCCC3)c[nH]2)c1
  105 | 106
COc1ccc(C(=O)NCC(c2cccnc2)N2CCc3ccccc3C2)cc1OC (stereo not given)
  109 | 109
Cc1ccc(C(=O)COC(=O)C(Cc2c[nH]c3ccccc23)NC(=O)c2ccc(Br)cc2)cc1 (stereo not given)
  110 | 102
Cc1cc(S(=O)(=O)NCCc2csc(-c3cccc(F)c3)n2)ccc1F
  112 | 108
Cc1cc(S(=O)(=O)C(CNC(=O)c2ccc(OC(C)C)cc2)c2cccs2)ccc1F (stereo not given)
  103 | 100
Cc1ccc(Cn2c(=O)n(Cc3ccccc3)c(=O)c3c(C)c(C)sc32)cc1
  112 | 109
O=C(COc1ccccc1)Nc1ccc2nc(SCC(=O)N3CCOCC3)sc2c1
  103 | 106
COc1ccc(-c2csc3nc(-c4ccc(F)cc4)oc(=O)c23)cc1
  109 | 105
CCc1ccc(C2CC(=O)c3c([nH]c(C(=O)OCCOc4ccccc4)c3C)C2)cc1 (stereo not given)
  112 | 108
CCCC(=O)Nc1nnc(SCc2cc(=O)c3ccc(C)cc3[nH]2)s1
  109 | 97
COc1cccc(CNC(=O)CSC2=Nc3ccccc3N=C(c3ccc(F)cc3)C2)c1
  98 | 102
CCc1ccccc1N1CC(c2nc3ccccc3n2CC(C)C)CC1=O (stereo not given)
  108 | 103
CCc1ccc(CNC(=O)CN(c2ccc(C)cc2)S(=O)(=O)N(C)C)cc1
  102 | 103
CCOC(=O)c1cc(-c2ccccc2)n(-c2cccc(C(=O)NC(C)(C)C)c2)c1C
  90 | 98
COC(=O)c1sc2cccc(F)c2c1S(=O)(=O)N1CCN(c2ccc(F)cc2)CC1
  115 | 107
CCOc1ccccc1Nc1nnc(-c2cc3cc(OC)ccc3oc2=O)s1
  133 | 124
COc1ccc(N2CCN(S(=O)(=O)CCNC(=O)Cc3ccc(Cl)cc3)CC2)cc1
  100 | 108
O=C(NCCc1c[nH]c2ccccc12)Nc1ccccc1C(F)(F)F
  107 | 105

# Some of the entries above, set out differently:
> Cc1ccc(Cn2c(=O)n(Cc3ccccc3)c(=O)c3c(C)c(C)sc32)cc1
  PV pol inh intensity: 112 | PV pol inh: 109

> COc1cccc(CNC(=O)CSC2=Nc3ccccc3N=C(c3ccc(F)cc3)C2)c1
  PV pol inh intensity: 98 | PV pol inh: 102

> COc1ccc(C(=O)NCC(c2cccnc2)N2CCc3ccccc3C2)cc1OC (stereo not given)
  PV pol inh intensity: 109 | PV pol inh: 109

> Cc1cc(S(=O)(=O)C(CNC(=O)c2ccc(OC(C)C)cc2)c2cccs2)ccc1F (stereo not given)
  PV pol inh intensity: 103 | PV pol inh: 100

# Next section:
# Values run as follows: PV pol inh intensity | PV pol inh
COc1cccc(N2CCN(C(=O)c3cc4cc5cc(C)ccc5nc4s3)CC2)c1
  117 | 111
CC(C)c1ccc(S(=O)(=O)Nc2ccc3oc4c(c3c2)C(=O)CC(C)(C)C4)cc1
  99 | 103
Cc1ccc(Nc2cc(C(=O)NC3CCCC3)c3ccccc3n2)c(C)c1
  106 | 107
Cc1cccc(C)c1NC(=O)c1ccc2nc(CCc3ccccc3)oc2c1
  105 | 102
COc1ccc(-c2cc(C(=O)NCc3ccc(C)cc3)c3cc(C(C)C)ccc3n2)cc1
  108 | 111
COc1ccc(C2c3c(-c4c(C)cc(C)cc4O)n[nH]c3C(=O)N2Cc2ccco2)cc1 (stereo not given)
  108 | 109
COc1ccc(-c2nc3ccccc3n3c(-c4ccccc4)c4c(=O)n(C)c(=O)n(C)c4c23)cc1
  111 | 109
CC(C)(C)c1ccc(C(=O)NCC(c2ccco2)S(=O)(=O)c2ccc(F)cc2)cc1 (stereo not given)
  109 | 119
CN(C)S(=O)(=O)n1cc(/C=C(\NC(=O)c2ccccc2F)C(=O)NCCCn2ccnc2)c2ccccc21
  111 | 108

# High-throughput results deposited in PubChem BioAssay by ICCB-Longwood Screening Facility, Harvard Medical School.
